RecA intein inh – Mtb RecA intein splicing inhibition; P9WHJ3; cell-free RecA intein splicing, fluorescence; 290,000 compounds, 0.75% hits; inhibition, %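 (about 9 µM by stock and volumes)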; in the data active means inhibition above about 30%; inconclusive means no clear call, values can overlap the other calls;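 further: 0% = vehicle wells and 100% = reference inhibitor control wells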
Target sequence (P9WHJ3 whole entry, looked up): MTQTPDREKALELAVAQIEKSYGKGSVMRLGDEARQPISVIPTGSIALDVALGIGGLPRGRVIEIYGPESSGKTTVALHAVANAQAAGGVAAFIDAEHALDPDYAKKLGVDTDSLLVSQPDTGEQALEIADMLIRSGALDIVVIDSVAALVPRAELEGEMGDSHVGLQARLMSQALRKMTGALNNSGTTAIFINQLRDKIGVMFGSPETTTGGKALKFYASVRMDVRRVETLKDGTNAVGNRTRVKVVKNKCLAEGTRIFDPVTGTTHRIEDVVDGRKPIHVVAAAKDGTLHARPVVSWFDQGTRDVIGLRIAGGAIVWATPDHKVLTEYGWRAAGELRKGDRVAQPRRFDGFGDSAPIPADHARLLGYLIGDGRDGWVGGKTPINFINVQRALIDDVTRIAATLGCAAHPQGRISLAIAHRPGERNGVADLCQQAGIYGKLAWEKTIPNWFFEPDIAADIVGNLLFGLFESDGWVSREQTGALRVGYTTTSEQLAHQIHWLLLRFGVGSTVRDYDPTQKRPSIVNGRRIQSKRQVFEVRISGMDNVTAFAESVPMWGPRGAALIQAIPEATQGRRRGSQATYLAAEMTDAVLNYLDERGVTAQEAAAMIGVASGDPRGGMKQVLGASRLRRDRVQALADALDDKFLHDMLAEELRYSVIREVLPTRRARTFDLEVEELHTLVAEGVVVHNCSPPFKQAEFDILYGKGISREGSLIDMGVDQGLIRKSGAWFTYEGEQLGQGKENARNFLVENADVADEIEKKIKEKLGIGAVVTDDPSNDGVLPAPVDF
YopH inh – YopH (Yersinia) phosphatase inhibition; fluorescence Ex485/Em525; inhibition, %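 (about 10 µM by stock and volumes)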; 140,000 compounds, 0.16% hits; AID 898;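 active means inhibition of 50% or more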;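 further: controls were vehicle for no effect and minimum signal wells for full effect; inactives centre near -20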
Arbovirus inh – antivirals against arbovirus infection; 200,000 compounds, 0.37% hits; arbovirus infection cell-based antiviral screen; inhibition, % at 10 µM;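 active means inhibition from about 30%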;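 further: bluetongue infection of BSR cells; cell survival read as ATP light after 72 h; 0% = infected wells without compound and 100% = uninfected wells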
Mtb betalactam – beta-lactam sensitization of Mtb H37Rv; M. tuberculosis H37Rv growth with meropenem, percent inhibition; hits of this screen are not shown here; inhibition, % at 25 µM; 330,000 compounds, 0.27% hits; AID 434955;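 active means about 74% or more and at least 40 points above the plate without the antibiotic, then above 30% in a dose series; inconclusive means first-round hits that could not be retested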;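 further: growth measured after seven days incubation then overnight dye step; 0% = bacteria only wells and 100% = bacteria with antibiotic; twin plates without the antibiotic show which effects depend on it; some results filed as inactive read as strong as hits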
Mtb growth – M. tuberculosis H37Rv growth inhibitors, H37Rv strain (AID 1626); M. tuberculosis H37Rv growth inhibition; higher % means a stronger effect; 220,000 compounds, 0.95% hits; inhibition, % at 10 µM, or IC50 in µM where a hit was titrated;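 active means confirmed in a dose series; inconclusive means inhibition above 80% but not taken into the dose series; inactive means below 80% or under 30% at every dose of the series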;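 further: bacteria incubated seven days before Alamar blue readout; 0% = bacteria only wells and 100% = bacteria with antibiotic wells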
Arbovirus inh repeat – recorded beside Arbovirus inh, whose call it bears; inhibition, %; measured here: 10K subset replicate screen; many hits read low in the repeat;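 first of two repeat runs on a subset; 0% = infected and 100% = uninfected wells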
* hit, by the source's call.

For Cc1c(NC(=O)COc2cccc3c2OC(C)(C)C3)c(=O)n(-c2ccccc2)n1C the results were RecA intein inh 0.7, Arbovirus inh 2, Mtb betalactam -7 and Mtb growth 2%.
`CCN1CCN(C(=O)Cc2c(C)n(C(=O)c3ccc(Cl)cc3)c3ccc(OC)cc23)CC1` gave RecA intein inh -1.2, Arbovirus inh -25, Mtb betalactam -8 and Mtb growth 0%.
Screening Cc1cc(Cl)c(S(=O)(=O)N2CCCCCC2)cc1OCC(=O)NC1CCCCC1 returned RecA intein inh -1.5, YopH inh -16, Arbovirus inh 13, Mtb betalactam 14 and Mtb growth -1%.
O=C(c1c(F)cccc1F)N(C1CCCCC1)C1CCCCC1 was read as RecA intein inh 6.1 and Mtb betalactam 1.
Screening O=c1[nH][nH]c(-c2ccccc2)c1C=Nc1ccc(OC(F)(F)F)cc1 returned RecA intein inh 3.4, Arbovirus inh -3, Mtb betalactam 2 and Mtb growth -2%.
Screening Cc1cccc(C(=O)NC(=O)Nc2c(C)cc(C)nc2C)c1 returned RecA intein inh 2.9, Arbovirus inh 16, Mtb betalactam -11 and Mtb growth 4%.
For CC(C)(C)n1c(=O)[nH]c2c(c1=O)CCC2 the results were RecA intein inh 3.3, YopH inh -34, Arbovirus inh 7, Mtb betalactam -9 and Mtb growth -3%.
O=C(NCc1cccnc1)c1cccc(S(=O)(=O)N2CCOCC2)c1 was read as RecA intein inh 0.2, YopH inh -39, Arbovirus inh 5, Mtb betalactam 3, Mtb growth 0% and Arbovirus inh repeat 1.
For CCCCOc1cccc(-c2cc(C(=O)NNC(=S)NCC)c3ccccc3n2)c1 the results were RecA intein inh 0.6, YopH inh -18, Arbovirus inh -14, Mtb betalactam 45 and Mtb growth 13%.
For CC1CCCCN1CC(=O)c1c[nH]c2ccccc12 (stereo unspecified) the results were RecA intein inh -1.4 and Mtb betalactam -6.
Cc1cc(C(=O)CN2CC(C)OC(C)C2)c(C)n1-c1ccccc1 (stereo unspecified) was read as RecA intein inh 2.0, YopH inh -26, Arbovirus inh -1, Mtb betalactam -3, Mtb growth 1% and Arbovirus inh repeat 5.
COc1ccccc1OCCC(=O)NCc1ccc2c(c1)OCO2 was read as RecA intein inh -0.9, Arbovirus inh 4, Mtb betalactam 2 and Mtb growth 0%.
`COc1c(C)cc(S(=O)(=O)N2CCOCC2)c(C)c1C` gave RecA intein inh 6.6, Arbovirus inh 0, Mtb betalactam -5 and Mtb growth -5%.
For CCc1ccc(C(=O)C(C)OC(=O)Cc2n[nH]c(=O)c3ccccc23)cc1 (stereo unspecified) the results were RecA intein inh 2.0 and Mtb betalactam 2.
For COc1cc(NC(=O)CN(C)S(=O)(=O)c2cccs2)cc(OC)c1 the results were RecA intein inh 23 and Mtb betalactam inconclusive.
COc1ccc(-c2cc(C(F)(F)F)nc(N3CCN(C)CC3)n2)cc1 was read as RecA intein inh 2.7, YopH inh -3, Arbovirus inh -2, Mtb betalactam -1, Mtb growth -1% and Arbovirus inh repeat 0.
`COc1cc2c(cc1OC)CN(CC(=O)NC(=O)NCc1ccco1)CC2` gave RecA intein inh -19, YopH inh 1, Arbovirus inh 4, Mtb betalactam -3 and Mtb growth -5%.
For CC(C)(C#CC(=O)O)OOC(c1ccccc1)(c1ccccc1)c1ccccc1 the results were RecA intein inh 20 and Mtb betalactam inconclusive.
Screening CCCCOc1ccc(C2C3CN(C(=O)OCC)CC=C3C(C#N)=C(N)C2(C#N)C#N)cc1OC (stereo unspecified) returned RecA intein inh 33*, YopH inh -16, Arbovirus inh 4, Mtb betalactam 37 and Mtb growth -1%.
`COC(=O)C1=C(c2cc3ccccc3s2)C[C@@H]2CC[C@H]1N2C(=O)N1CCC(O)CC1` gave RecA intein inh -0.3, Mtb betalactam 0 and Mtb growth -3%.
O=C(COC(=O)c1cc(=O)c2ccccc2o1)NC1CCCCC1 was read as RecA intein inh 2.7, Arbovirus inh 6, Mtb betalactam -4 and Mtb growth 5%.
CCN(CC(=O)Nc1ccc(NC(C)=O)cc1)C(=O)CCCN1C(=O)c2ccccc2C1=O was read as RecA intein inh -2.2 and Mtb betalactam -1.
`C(/C=C/c1ccccn1)=C\c1ccccc1` gave RecA intein inh 2.3 and Mtb betalactam 1.
`CC1CCCCN1S(=O)(=O)CCNC(=O)c1ccccc1` (stereo unspecified) gave RecA intein inh -3.5 and Mtb betalactam 4.
Cc1ccc(-c2csc(N)n2)s1 was read as RecA intein inh -4.0, YopH inh -37, Arbovirus inh -22, Mtb betalactam 76 and Mtb growth -2%.
For O=C(Oc1cccnc1)c1ccc(Cl)c(Cl)c1 the results were RecA intein inh 26, YopH inh -32, Arbovirus inh 13 and Mtb betalactam 100.
Screening COc1ccccc1N1CCNC(C)C1=O (stereo unspecified) returned RecA intein inh 0.0 and Mtb betalactam -3.
`C#Cc1ccc([C@@H]2C=C(C(=O)N3CCN(Cc4ccccc4)CC3)O[C@H](OCC)[C@H]2CCCO)cc1` gave RecA intein inh 3.3, Arbovirus inh -11, Mtb betalactam 4 and Mtb growth -1%.
For CC1=C(C(=O)OC(C)C)C(c2ccc(C)o2)NC(=O)N1 (stereo unspecified) the results were RecA intein inh 0.5, YopH inh -16, Arbovirus inh -5, Mtb betalactam -3 and Mtb growth -7%.
Screening COC(=O)CC1=C(C(=O)OC)C2(C(=O)N(C)c3ccccc32)C(C#N)=C(N)O1 (stereo unspecified) returned YopH inh -42, Arbovirus inh -5, Mtb betalactam -3 and Mtb growth -6%.
For O=C(NNS(=O)(=O)c1ccc(F)cc1)c1cnn(-c2ccccc2)c1C(F)(F)F the results were RecA intein inh -0.7, Mtb betalactam 0 and Mtb growth 11%.
COc1ccc(N2CCN(C(=S)Nc3ccc(S(N)(=O)=O)cc3)CC2)cc1 was read as RecA intein inh 10, Arbovirus inh 0, Mtb betalactam -1 and Mtb growth 2%.
`O=C(NNC(=O)c1ccc(S(=O)(=O)N2CCCCC2)cc1)c1ccc(F)cc1` gave RecA intein inh 0.7 and Mtb betalactam -6.
For CCc1nnc(NC(=O)CSc2nc(SC)ns2)s1 the results were RecA intein inh -6.0, Arbovirus inh 5, Mtb betalactam 1 and Mtb growth 3%.
CC(=O)NCCc1c[nH]c2ccc(OCC(O)CNC(C)(C)C)cc12 (stereo unspecified) was read as RecA intein inh -2.0, Mtb betalactam -2 and Mtb growth 5%.
For CCOC(=O)C(=O)NNc1ccc(C)cc1 the results were RecA intein inh -3.8, YopH inh -37, Arbovirus inh -32, Mtb betalactam 95 and Mtb growth inconclusive.

Filtered by structure: those above containing a cyano group
Screening CCCCOc1ccc(C2C3CN(C(=O)OCC)CC=C3C(C#N)=C(N)C2(C#N)C#N)cc1OC (stereo unspecified) returned RecA intein inh 33*, YopH inh -16, Arbovirus inh 4, Mtb betalactam 37 and Mtb growth -1%.
Screening COC(=O)CC1=C(C(=O)OC)C2(C(=O)N(C)c3ccccc32)C(C#N)=C(N)O1 (stereo unspecified) returned YopH inh -42, Arbovirus inh -5, Mtb betalactam -3 and Mtb growth -6%.

(further entries)
`CC(C)CCNC(=O)CN(C(=O)CCC(=O)Nc1nccs1)C1CCCCC1` gave RecA intein inh -3.8 and Mtb betalactam 0.
COc1ccc(NC(=O)c2oc3ccccc3c2NC(=O)c2ccco2)c(OC)c1 was read as RecA intein inh -2.5, YopH inh -28, Arbovirus inh -7, Mtb betalactam -2 and Mtb growth 0%.
Screening O=C1OC(/C=C/c2ccc(Cl)cc2Cl)=NC/1=C\c1cccs1 returned RecA intein inh 3.7, YopH inh -24, Arbovirus inh 13 and Mtb growth 6%.
CS(=O)(=O)Nc1ccc(C2=NN(S(C)(=O)=O)C(c3ccc4c(c3)OCO4)C2)cc1 (stereo unspecified) was read as RecA intein inh -2.4, YopH inh -21, Arbovirus inh -9, Mtb betalactam -3 and Mtb growth 2%.
`O=c1c2ccccc2nnn1CSc1nnc(C2COc3ccccc3O2)n1-c1ccccc1` (stereo unspecified) gave RecA intein inh 3.0, YopH inh -19, Arbovirus inh 2, Mtb betalactam -1 and Mtb growth -13%.
For CC1(C)SC(=S)N(/N=C/c2ccccc2)C1N(O)C(=O)Nc1ccc([N+](=O)[O-])cc1 (stereo unspecified) the results were RecA intein inh -0.5, YopH inh 21, Arbovirus inh 5, Mtb betalactam 2 and Mtb growth 2%.
For O=C(NC1CCCCCC1)c1cccc(COCC(F)(F)F)c1 the results were RecA intein inh 2.3, YopH inh -30, Arbovirus inh -5, Mtb betalactam -1 and Mtb growth 0%.
`CC(C)c1ccc(OCC(O)CN2CCN(c3ccccc3)CC2)cc1` (stereo unspecified) gave RecA intein inh 4.7, YopH inh -27, Arbovirus inh 9, Mtb betalactam 4 and Mtb growth 8%.
Nc1c(-c2cccc(Cl)c2)cnc2c(-c3ccccc3)cnn12 was read as RecA intein inh -0.4 and Mtb betalactam -6.
For O=C(NCCc1c[nH]c2ccccc12)C(=O)NCC1CCCO1 (stereo unspecified) the results were RecA intein inh 0.6, Arbovirus inh -3, Mtb betalactam -6 and Mtb growth -4%.
`CCOc1[nH]n(-c2ccc(Cl)cc2)c(=O)c1C=NCC(=O)OC` gave RecA intein inh -1.3, Arbovirus inh 2, Mtb betalactam 6 and Mtb growth -8%.
Screening Cc1ccccc1NC(=O)Cn1c([N+](=O)[O-])cnc1C returned RecA intein inh -5.1, YopH inh -25, Arbovirus inh -2, Mtb betalactam -3 and Mtb growth -7%.
For CN1/C(=C\C(=O)Nc2ccc(Br)cc2)C(C)(C)c2ccccc21 the results were RecA intein inh 11, YopH inh -25, Arbovirus inh -8, Mtb betalactam 97 and Mtb growth 34%.
`O=C(/C=C/c1ccccc1)c1ccc2c3c(cccc13)CC2` gave RecA intein inh 34*, YopH inh -5, Arbovirus inh 11, Mtb betalactam 70 and Mtb growth 11%.
CCN(CC)S(=O)(=O)c1cccc(C(=O)N[C@@H](C)c2nc3ccccc3[nH]2)c1 was read as RecA intein inh -1.2, Arbovirus inh 4, Mtb betalactam 7 and Mtb growth -5%.
Screening COc1cc(Cl)c(C)cc1NC(=O)CSc1ccc(C)cc1 returned RecA intein inh 0.7, YopH inh -27, Arbovirus inh 3, Mtb betalactam 2 and Mtb growth 2%.
`Cc1onc(-c2c(F)cccc2Cl)c1C(=O)Nc1cccc(S(=O)(=O)NCc2ccco2)c1` gave Arbovirus inh -10, Mtb betalactam 9 and Mtb growth -3%.
Screening Cc1ccc(NS(=O)(=O)c2cccc(C(=O)NNC(=O)c3ccco3)c2)c(C)c1 returned RecA intein inh -1.6 and Mtb betalactam 0.
Screening CCOc1ccc(C2N(c3ccc(OC)cc3)C(=O)C3CCCN32)cc1OC (stereo unspecified) returned RecA intein inh 3.7, YopH inh -38, Arbovirus inh 3, Mtb betalactam 7, Mtb growth -2% and Arbovirus inh repeat 1.
Screening O=C(NCc1ccc(F)cc1)C(=O)NCC1OCCCN1S(=O)(=O)c1cccs1 (stereo unspecified) returned RecA intein inh -1.0 and Mtb betalactam 5.
COCCCNC(=O)c1ccccc1C(F)(F)F was read as RecA intein inh -0.2, Mtb betalactam -3 and Mtb growth 3%.
Screening CC(C)(C)C(=O)/C=C/Nc1ccccc1O returned RecA intein inh -1.3, YopH inh -25, Arbovirus inh -9, Mtb betalactam 99 and Mtb growth 2.5µM*.
Screening O=C(c1ccc(N2CCN(C(=O)c3ccccc3)CC2)cc1)c1cccc(F)c1 returned RecA intein inh 2.6 and Mtb betalactam 11.
Screening COC(=O)C(CC(C)C)NC(=O)/C=C/c1ccccc1Cl (stereo unspecified) returned RecA intein inh -1.4, YopH inh -20, Arbovirus inh -13, Mtb betalactam 100 and Mtb growth 4.7µM*.
COc1ccc(OC)c(C(=O)CSc2nnc(-c3ccc(OC)c(OC)c3)o2)c1 was read as YopH inh -123, Arbovirus inh -12 and Mtb growth -6%.
Screening CC(C)C(NC(=O)c1ccccc1F)C(=O)NCc1ccc(F)cc1 (stereo unspecified) returned RecA intein inh -0.1 and Mtb betalactam 1.
For Cc1c(NC(=S)NC(=O)c2ccc(Br)o2)c(=O)n(-c2ccccc2)n1C the results were RecA intein inh 0.2, Arbovirus inh 0, Mtb betalactam -5 and Mtb growth 1%.
For CC1(C)CC(/C=C/c2ccccc2)=Nc2ccccc2N1 the results were RecA intein inh 3.0, Mtb betalactam 1 and Mtb growth 11%.

3 structures from above, ordered by molecular weight, low to high:
For CC1(C)CC(/C=C/c2ccccc2)=Nc2ccccc2N1 the results were RecA intein inh 3.0, Mtb betalactam 1 and Mtb growth 11%.
Screening COC(=O)C(CC(C)C)NC(=O)/C=C/c1ccccc1Cl (stereo unspecified) returned RecA intein inh -1.4, YopH inh -20, Arbovirus inh -13, Mtb betalactam 100 and Mtb growth 4.7µM*.
For Cc1c(NC(=S)NC(=O)c2ccc(Br)o2)c(=O)n(-c2ccccc2)n1C the results were RecA intein inh 0.2, Arbovirus inh 0, Mtb betalactam -5 and Mtb growth 1%.

Screening results deposited in PubChem BioAssay by several laboratories.

These rows are one share of the data, so the mix of outcomes need not match the whole.
